Compound activity deposited in PubChem by Fisher Drug Discovery Resource Center.
NPYLR7 agonist – mosquito NPYLR7 agonism | 270,000 tested, 0.15% active | activation, % at 10 µM | HEK293T NPYLR7/Galpha15, GCaMP6s calcium fluorescence; in the data active means activation above about 40%;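 further: 0% = vehicle and 100% = reference agonist at the receptor; some compounds past the cut are filed as inactive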
NPYLR7 agonist max-min – second read-out of NPYLR7 agonist, no call of its own (marks repeat the call); activation, %; measured here: Max-Min RFU normalised activation; some inactives read as strong as hits;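 span of the calcium signal over five minutes; 0% = vehicle and 100% = native peptide agonist; compound fluorescence can raise it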
Active calls of the source: *; & = joins results of further samples. This is a subset, so the mix of outcomes need not match the whole.

Results follow in this order: NPYLR7 agonist	NPYLR7 agonist max-min
COc1ccc(S(=O)(=O)N2CN(Cc3cccs3)c3nc4ccccc4nc32)cc1
    1	-8
CCN(Cc1ccccc1)C(=O)C(C)Sc1n[nH]c(C2CC2)n1 (stereo unspecified)
    6	-1
Cc1n[nH]c(C)c1CCC(=O)Nc1ccc(F)c(Cl)c1
    2	0
CCN1CCN(c2nc3c(C)cccn3c(=O)c2C=C2SC(=S)N(Cc3ccco3)C2=O)CC1
    11	15
Cc1cc(C(=O)N2CC(C)CC(C)C2)c(C)o1 (stereo unspecified)
    -3	-6
Cc1cccc(N2CCN(C(=O)Nc3ccc(CCN4CCOCC4)cc3)C(C)C2)n1 (stereo unspecified)
    1	0
c1ccc2c(c1)nc1n2CN(Cc2ccc3c(c2)OCO3)CN1
    11	6
CCCN(CC(=O)NC(=O)NCC)C(C)c1ccc(Cl)c(Cl)c1 (stereo unspecified)
    -2	-6
COc1ccc(N2C(=O)CN(C(=O)c3ccccc3SC)CC2(C)C)cc1
    6	5
CC(C)Sc1ccc(N(C)CC(=O)NC2CC2)nn1
    5	6
COc1ccccc1C1c2cccn2CCCN1CCC(C)C (stereo unspecified)
    9	8
Cc1noc(C)c1C(=O)NC1CCCN(c2ccccc2Cl)C1=O (stereo unspecified)
    4	2
CCc1nc2ccccc2n1CC(=O)N1CCC(CCN(C)C)CC1
    2	10
CC(C)CN(C1CCS(=O)(=O)C1)S(=O)(=O)c1ccc(Br)cc1 (stereo unspecified)
    -1	34
N#Cc1ccsc1NC(=O)CN1CCCC(Cc2ccc(C(F)(F)F)cc2)C1 (stereo unspecified)
    -4	3

The final 5 compounds of the part before lead into the next.
Results follow in this order: NPYLR7 agonist	NPYLR7 agonist max-min
COc1ccccc1C1c2cccn2CCCN1CCC(C)C (stereo unspecified)
    9	8
Cc1noc(C)c1C(=O)NC1CCCN(c2ccccc2Cl)C1=O (stereo unspecified)
    4	2
CCc1nc2ccccc2n1CC(=O)N1CCC(CCN(C)C)CC1
    2	10
CC(C)CN(C1CCS(=O)(=O)C1)S(=O)(=O)c1ccc(Br)cc1 (stereo unspecified)
    -1	34
N#Cc1ccsc1NC(=O)CN1CCCC(Cc2ccc(C(F)(F)F)cc2)C1 (stereo unspecified)
    -4	3
Cc1ccc(-n2nnc3c(=O)[nH]cnc32)cc1
    -5	-5
COc1ccc2c(c1OC)C(=O)N1c3ccccc3N=C(c3ccc(Cl)cc3)CC21 (stereo unspecified)
    -6	-12
CCN(CC)C(=O)C(NC(=O)c1cccc(OC)c1)C1CCN(C(=O)NC(C)(C)C)CC1 (stereo unspecified)
    15	19
CC(C)c1ccc2cc(C(=O)Nc3ccn(C)n3)[nH]c2c1
    -3	-4
CC(C)n1c(CN2CCOCC2)nc2c1c(=O)n(C)c(=O)n2C
    -5	-7
CCC(CC)NC(=O)CN1CCN(c2ccccc2F)CC1
    -4	-6
CSc1ccc(CN2CCC2(C)C(=O)NCc2cccc3ccccc23)cc1 (stereo unspecified)
    4	2
CC(C)(C)C(=O)CN1CCC(C(=O)NC(c2ccc(F)cc2)c2ccc3ccccc3n2)CC1 (stereo unspecified)
    1	-2
CCc1nc2ccc(C(=O)N3CCCCC3)cn2c1N(CCC(C)C)CCN(C)C
    -3	-10
COCCn1c(CN2CCN(Cc3ccccc3)CC2)nc2c1c(=O)n(C)c(=O)n2C
    1	13
CCCCC(CC)C(=O)N(CCC#N)Cc1ccccc1 (stereo unspecified)
    0	-3
CC1CN(C(=O)CSc2ncnc3c2nnn3C)CC(C)O1 (stereo unspecified)
    4	9
O=C(CCn1c(=O)sc2ccccc21)Nc1ccc(F)cc1F
    10	8
COCC1CCCN(C(=O)NCC(OC)c2ccc(F)cc2)C1 (stereo unspecified)
    12	8
O=C(O)c1ccc(Nc2c(Oc3ccc4c(c3)OCO4)cnn(-c3ccccc3)c2=O)cc1
    8	8
COc1ccc(-c2ccc(=O)n(CCCNC(=O)COc3ccccc3)n2)cc1
    -4	-5
COc1c(Br)cc(Cl)cc1S(=O)(=O)N(C)Cc1nccn1C
    -2	5
CCOC(=O)Cc1c(C)nc2cc(-c3ccc(Br)cc3)[nH]n2c1=O
    -8	-9
COc1ncccc1-c1cnc(-n2cnnc2)cc1C
    -4	-10
CSCCSc1nc2cc(S(=O)(=O)N(C)C)ccc2o1
    5	8
O=C1CN(C(=O)CN2CCCC2c2cccs2)c2ccccc2N1 (stereo unspecified)
    5	3
CC1CC(C)CN(Cc2nc3c(c(=O)n(C)c(=O)n3C)n2CC=Cc2ccccc2)C1 (stereo unspecified)
    21	12
OCCNC(=S)Nc1ccccc1
    -3	-5
Cc1ccc2oc(-c3ccc(C)c(NC(=O)c4ccc(Br)cc4)c3)nc2c1
    1	-5
COC(=O)c1ccc(C2C(C(=O)OC3CCCC3)=C(C)NC3=C2C(=O)CCC3)cc1 (stereo unspecified)
    -4	-7
Cc1csc(CC(N)=O)n1
    5	3
CC(C)CN1C(=O)C(=O)N(CC(=O)c2ccc[nH]2)C1=O
    0	0
CC(C)NC(=O)N(CCN(C)C)Cc1c(-c2ccccc2)noc1N1CCCC1
    -4	3
Cc1[nH]n(C(C)(C)C)c(=O)c1Sc1ccccc1
    13	4
CCCN(Cc1nc(Cc2ccccc2Cl)no1)CC1CCCO1 (stereo unspecified)
    2	-3
C(=NNc1nc2ccccc2[nH]1)c1ccccc1OCc1ccccc1
    11	15
O=[N+]([O-])c1ccccc1CN1CCCn2cccc2C1c1ccoc1 (stereo unspecified)
    19	24
Cc1cc(C(=O)Nc2ncc(C(N)=O)cc2Cl)ccc1F
    10	9
Cc1cc(NC(=O)c2cc3ccccc3o2)n(-c2nc(C)c(C)c(=O)[nH]2)n1
    8	2
Cc1ccc(CCCC(=O)N(C(C)CS(C)(=O)=O)C2CC2)cc1 (stereo unspecified)
    10	5
CCCc1cc(N2CCCCC2)n2ncc(-c3ccccc3)c2n1
    1	-2
O=C(COC(=O)Cc1ccsc1)NC(=O)NC1CCCC1
    4	1
Cc1ccc(C2(C)NC(=O)N(CC(=O)N(C)C3CCCCC3)C2=O)cc1 (stereo unspecified)
    5	0
COc1ccc(-c2nc3cc(C)ccn3c2NC(=O)CCc2ccccc2)cc1OC
    -5	0
CCCn1cnnc1CNC(=O)c1noc2c1CCCC2
    14	9
CC(=O)NCC1=CCCN(C(c2ccccc2)c2ccccc2)C1
    2	1
O=C(Nc1ccc(Oc2ccccc2)nc1)C1CCN(C(=O)c2cnsn2)CC1
    -1	0
CN1CCN(c2cc(NCC[C@@H]3C[C@@H]4C=C[C@H]3C4)nc(N)n2)CC1
    8	0
OC(CN(Cc1cccc(Cl)c1)CC1CC(c2ccc(F)cc2)=NO1)c1ccccc1 (stereo unspecified)
    -2	5
CCOc1ccc(-n2c(-c3nccc4ccccc34)n[nH]c2=S)cc1
    -9	-13

Part of the list above, with each value named:
molecule: C(=NNc1nc2ccccc2[nH]1)c1ccccc1OCc1ccccc1
  NPYLR7 agonist = 11; NPYLR7 agonist max-min = 15
molecule: CCOc1ccc(-n2c(-c3nccc4ccccc34)n[nH]c2=S)cc1
  NPYLR7 agonist = -9; NPYLR7 agonist max-min = -13
molecule: CCCn1cnnc1CNC(=O)c1noc2c1CCCC2
  NPYLR7 agonist = 14; NPYLR7 agonist max-min = 9
molecule: CCCc1cc(N2CCCCC2)n2ncc(-c3ccccc3)c2n1
  NPYLR7 agonist = 1; NPYLR7 agonist max-min = -2

Next records.
Results follow in this order: NPYLR7 agonist	NPYLR7 agonist max-min
Cc1ccc(F)cc1C(=O)N1CCN(c2nc3nccc(-c4ccc5c(c4)OCO5)n3n2)CC1
    4	-2
CCNC(=O)CSc1nnc(NCC)s1
    1	-2
Cc1ccc(-c2n[nH]c(-c3ccccn3)n2)cc1
    14	5
COCCCN(CC(=O)N(CCOC)Cc1cccn1C)C(=O)Nc1ccc(C)cc1
    -2	5
Cn1cc(C(CC(=O)N2CCC(C(N)=O)CC2)c2ccccc2C(F)(F)F)c2ccccc21 (stereo unspecified)
    20	17
CCC(Oc1ccc2ccccc2c1Br)C(=O)N/N=C\c1cc(OC)ccc1OC(C)=O (stereo unspecified)
    1	-2
COc1ccc(C=Nc2ccc(C)cc2O)c2ccccc12
    -9	-22
CC(c1nc(Cc2ccccc2)no1)N1CCCC(c2ccn[nH]2)C1 (stereo unspecified)
    -3	-8
Fc1cccc(Cc2noc(CN3CCCC4(CCCN(Cc5ccccc5)C4)C3)n2)c1 (stereo unspecified)
    5	2
NC(=O)c1ccc(C(F)(F)F)n(Cc2nc(-c3ccsc3)no2)c1=O
    3	2
COc1ccc(S(=O)(=O)NCC2CCCO2)cc1N1CCN(C(=O)C2(c3ccc(Cl)cc3)CCCC2)CC1 (stereo unspecified)
    6	3
O=C(NCc1nc2ccccc2n1Cc1ccc(F)cc1)c1ccco1
    -4	3
C/C=C/c1c(F)c(F)c(Oc2ccc(C=O)cc2)c(F)c1F
    7	6
S=C1Nc2ccccc2C2CC=NN12 (stereo unspecified)
    4	12
CCn1c(SCC(=O)c2ccc(Cl)c(C)c2)nnc1-c1cc(-c2ccccc2)nc2ccccc12
    -6	-8
Fc1cccc(-c2nnn(Cc3cc4c(cc3Br)OCCO4)n2)c1
    0	-3
CCOC(=O)C(c1ccc(OC)c(OC)c1)C1C=CC(NC(=O)c2cc(F)ccc2F)C1 (stereo unspecified)
    2	0
O=S(=O)(c1cc(Cl)cc(Cl)c1)N1CCN(c2nccc(-c3ccc(-n4ccnc4)cc3)n2)CC1
    9	1
O=C(c1ccc2c3c(cccc13)CC2)C1CCCN(C(=O)CCn2cnnn2)C1 (stereo unspecified)
    12	7
Clc1ccc(/C=N\Nc2cc(N3CCOCC3)nc(N3CCOCC3)n2)cc1
    -5	-6
CCCC(=O)NCCNc1cc(-n2ccnc2C)ncn1
    -13	-17
CCn1cc(C(=O)NCC2CC23CCc2ccccc23)cn1 (stereo unspecified)
    -3	-4
CC(=O)Nc1ccc(SCCN2CCOCC2)nn1
    7	6
CCCCN(CC(=O)N1CCc2sccc2C1c1ccc(Cl)cc1)C(=O)c1cccc(OC)c1 (stereo unspecified)
    16	10
Cc1cc(CN2CC[C@@H](N3CCN(c4ccccc4F)CC3)[C@H](O)C2)oc1C
    12	4
O=C1/C(=C\c2ccccc2[N+](=O)[O-])Sc2ccc3ccccc3c21
    -4	-2
CN(C1=NS(=O)(=O)c2ccccc21)c1ccc(OC(=O)c2cccc3ccccc23)cc1
    0	-1
O=C(NC(c1ccc2ccccc2n1)c1cccs1)C1CCN(CCCOc2ccccc2)CC1 (stereo unspecified)
    2	6
COC(=O)c1ccccc1SCc1csc(Cc2ccc3c(c2)OCO3)n1
    23	17
OC1(Cc2cc(-c3ccccc3)no2)CCN(Cc2cnc(-c3ccccc3)s2)CC1
    16	3
CCCC1CCC(c2ccc(C(=O)Nc3nncs3)cc2)CC1 (stereo unspecified)
    -10	-13
COCCNC(=O)CSc1nnc(-c2ccccc2F)n1CCc1ccccc1
    6	1
CN1CC2(CCN(Cc3cccc(O)c3)CC2)CC1C(=O)O (stereo unspecified)
    10	4
CCOCc1cc(CN2CCCC(CNC(=O)c3ccco3)C2)ccc1OC (stereo unspecified)
    8	6
Cc1cc(Oc2ccc3c(c2)OCO3)nc(SCc2ccccc2F)n1
    1	6
COc1ncccc1NC(=O)c1ccc(Cl)c(S(C)(=O)=O)c1
    0	0
CCn1c(C(=O)N2CCN(C(=O)c3ccc(F)cc3)C(C)C2)cc2ccsc21 (stereo unspecified)
    12	15
CCOC(=O)CCc1c(C)nc2ncnn2c1N1CCN(S(=O)(=O)c2ccc(F)cc2Cl)CC1
    26	16
CCCCc1ccc2nc(NC(=O)OC)[nH]c2c1
    19	15
Cc1c(C(=O)N(C)Cc2ccc(F)cc2)sc(=O)n1Cc1cccc(C(F)(F)F)c1
    -1	-2
CC(c1cccnc1)N(C)C(=O)NCCc1ccn(-c2ccccc2)n1 (stereo unspecified)
    3	1
COc1ccc2nc(NC(=O)/C=C/c3ccc(Cl)cc3Cl)sc2c1
    -9	-15
COc1cc(C)c(S(=O)(=O)N2CCN(c3nccc(-c4cccc(C(F)(F)F)c4)n3)CC2)c(C)c1C
    4	1
CCOC(=O)c1[nH]c(C)c(C(=O)CN(CC)S(=O)(=O)c2ccc3ccccc3c2)c1C
    -10	-3
O=C(O)c1coc(CN(Cc2ccc3c(c2)OCO3)Cc2ccc(F)cc2F)n1
    9	16
CC1ON=C(c2ccc(CN3CCOCC3)cc2)N(Cc2cccc(C#N)c2)C1=O (stereo unspecified)
    11	3
CN(C)S(=O)(=O)c1ccc(F)c(N)c1
    18	12
COc1ccc(-n2nc(-c3cccs3)cc2C(=O)N2CCN(c3cccc(C(F)(F)F)c3)CC2)cc1
    -2	0
O=C(Cn1cc2c(n1)CCCC2)NCC1CCCO1 (stereo unspecified)
    1	-3
O=C(N[C@H](Cc1ccccc1)C(=O)N1CCC(C(=O)N2CCOCC2)CC1)C1CC1c1ccccc1 (stereo partly specified)
    14	11
CCN(CC)CCCC(C)Nc1nc(C)cc(Nc2ccc3nc(C)cc(N)c3c2)n1 (stereo unspecified)
    4&-4	-9&-10
O=C(NCC(=O)N1CCOC(COCc2ccccc2F)C1)c1ccco1 (stereo unspecified)
    24	31
COc1ccc(-c2nn(-c3ccc(F)cc3)c(OC(C)=O)c2-c2ccc(NC(=O)c3ccccc3OC)cc2)cc1OC
    -8	-1
Cc1cc(C)c(-n2cccn2)c(CN2CCC(N3CCCC3=O)CC2)c1
    6	5
CCCCOc1ccc(C2C3=C(CCCC3=O)OC(=N)C2C#N)cc1OC (stereo unspecified)
    -9	-15
COCCNC(=O)CCC1CCN(C(=O)C#Cc2ccccc2)CC1
    5	5
